N370S GC: qHTS Assay for Inhibitors and Activators of N370S glucocerebrosidase as a Potential Chaperone Treatment of Gaucher Disease; Potency, µM (series often up to 59.4 µM), inactives show at the highest dose activity change, negative = inhibition, actives largely listed as inhibitors; actives 0.092% (n = 330,000); Lysosomal acid glucosylceramidase (Homo sapiens), P04062; N370S GC spleen homogenate, 4MU-glucoside fluorescence; active = well fitted inhibition curve with a large enough effect; inconclusive = small, poorly fitted or top-dose-only effect, or effect the other way, or another doubt; inactive = no such curve, though single readings can be large or run the other way;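 note: 0% = full enzyme activity and -100% = no enzyme basal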
The depositor's hits bear a star; ? = inconclusive; [ ] = dose if it differs, or a comment. Potency is the fitted concentration of half-maximal effect. Some of the compounds tested, and most or all hits are left out here.

SMILES	N370S GC
Cc1ccc(S(C)(=O)=O)cc1C(=O)OCC(=O)N1CCCC1=O	-7.2%
CC(C)n1cnc2c(N(C)c3cccc(Cl)c3)nc(N(CCO)CCO)nc21	-4.0%
CN(C)[C@@H]1C(=O)C(C(N)=O)=C(O)[C@]2(O)C(=O)C3=C(O)c4c(O)ccc(Cl)c4[C@H](O)[C@H]3C[C@@H]12	17.8%[21.6 µM]
NC(=O)c1ccc(CN2CCc3ccccc3C2)cc1	-1.4%
O=C(NCCN1CCOCC1)c1cc(-c2cccs2)on1	2.1%
COc1ccccc1CNC(=O)c1cc(-c2ccccc2)n(Cc2cc(C)no2)n1	-13.1%
CCS(=O)(=O)N1CCN(CC2CC3C=CC2C3)CC1 (stereo not given)	13.4%
CSc1nsc(SCC(=O)Nc2ccc(C(N)=O)cc2)n1	-0.4%
Cc1cccc(N(C(=O)CNC(=O)c2ccco2)C(C(=O)NC2CCCC2)c2ccncc2)c1C (stereo not given)	-2.2%
N#C/C(=C\c1ccc(Sc2ccccc2)o1)c1nc2ccccc2[nH]1	-4.5%
COc1ccc(/C(O)=C2/C(=O)C(=O)N(CC3CCCO3)C2c2cccc(OC)c2)cc1 (stereo not given)	5.7%
O=C(Nc1nc2c(cc3c4c(cccc42)CC3)s1)c1ccccc1Cl	7.4%
O=C1C(=O)N(CC(=O)N2CCCC2)c2ccccc21	-6.2%
Cc1noc(C)c1CSc1nc2[nH]ncc2c(=O)n1-c1ccccc1	5.2%
CCC(C)NC(=O)Cn1ccc2cc(S(=O)(=O)N3CCCCCC3)ccc21 (stereo not given)	-11.9%
CC(C)(C)c1ccc(C(=O)c2c[nH]c(C(=O)O)c2)cc1	16.9%
Cc1ccc(OCc2nc(C#N)c(NCc3ccco3)o2)cc1	2.9%
CCOc1ccc(NC(=O)CSc2nc(N)c(-c3ccccc3)c(=O)[nH]2)cc1	11.4%
Cc1cc[n+](C(C)C(=O)c2ccc(-c3ccccc3)cc2)cc1 (stereo not given)	-4.5%
CCN1CCN(CCCNC(=O)c2ccc(/C=C3/Oc4ccccc4N(Cc4cccc(C)c4)C3=O)cc2)CC1	26.8%

The last 3 compounds of the section above come first, to join the parts:
SMILES	N370S GC
CCOc1ccc(NC(=O)CSc2nc(N)c(-c3ccccc3)c(=O)[nH]2)cc1	11.4%
Cc1cc[n+](C(C)C(=O)c2ccc(-c3ccccc3)cc2)cc1 (stereo not given)	-4.5%
CCN1CCN(CCCNC(=O)c2ccc(/C=C3/Oc4ccccc4N(Cc4cccc(C)c4)C3=O)cc2)CC1	26.8%
Cc1c(C(=O)N/N=C/c2cccnc2)nnn1-c1nonc1N	-1.5%
CC(C)(C)CC(=O)N[C@@H](Cc1ccccc1)c1nc2ccccc2[nH]1	3.4%
O=S(=O)(c1ccc2nnn(O)c2c1)N1CCCCC1	-14.9%
Nn1c(SCC(=O)Nc2ccccc2Oc2ccccc2)nnc1C1CC1	3.1%
CC(=O)c1cn(CC(=O)Nc2ccc(C)cc2)c2ccccc12	1.3%
Cc1ccc(CNC(=O)CCS(=O)(=O)c2ccc3c(c2)NC(=O)C(C)S3)cc1 (stereo not given)	-25.5%
CC1(C)CC(=O)C2=C(C1)N(c1ccc(F)cc1)C(=O)NC2(C(F)(F)F)C(F)(F)F	5.5%
O=c1cc[nH]c2c(C(F)(F)F)cccc12	6.1%
NS(=O)(=O)c1ccc(CCNC(=O)c2cncc(Br)c2)cc1	3.4%
COc1ccc(C2OCC3(COC(C)=O)C(C)C=C(C)C2C3C)cc1 (stereo not given)	10.2%
COC(=O)c1c(C)nc(C)c(C(=O)OC)c1-c1ccc(OC)cc1	-9.9%
Cc1ccc(N2CCN(C(=O)c3ccccc3)CC2)c(C)c1	1.9%
COc1ccc(NC(=O)/C(C#N)=C\c2cc(C)n(-c3ccc4c(c3)OCO4)c2C)cc1	-3.6%
O=C(NCc1ccco1)C1CCCN(S(=O)(=O)c2ccccc2)C1 (stereo not given)	2.2%[12.8 µM]
CC(C)CCN(C(=O)Nc1ccc(Cl)cc1)C1CCN(C(C)C)CC1	1.0%
Cc1ccc(S(=O)(=O)N2CCN(C(C)C(=O)N3CCCc4ccccc43)CC2)cc1 (stereo not given)	1.9%
CC(=O)OC1C(=O)[C@@]2(C)C(O)CC3OC[C@]3(OC(C)=O)C2C(OC(=O)c2ccccc2)[C@]2(O)CC(OC(=O)C(O)C(NC(=O)c3ccccc3)c3ccccc3)C(C)=C1C2(C)C (stereo not given in full)	-10.4%
O=C(CN1CCCc2ccccc21)NCc1ccc2c(c1)OCO2	0.6%
CC1(C)CC2C1CCC1(C)OC1CCC2(C)O (stereo not given)	8.7%
c1nc2sc3c(c2c2nnnn12)CCCC3	25.0%
COc1ccc(C(=O)NCc2nnc(SCC(=O)Nc3nc4ccccc4s3)o2)cc1OC	-2.7%
CCN(c1ccccc1C)S(=O)(=O)c1nnc(NC(=O)c2ccco2)s1	20.8%
CCn1c(SCC(=O)Nc2ccc3c(c2)OCCO3)nc2c(c1=O)SC(C)C2 (stereo not given)	15.1%
Cc1ccc(CNC(=O)CSc2nccn(-c3ccc(C)c(F)c3)c2=O)cc1	4.8%
Cc1ccccc1Cn1nc(C)c(NC(=O)c2cc3nc(-c4ccco4)cc(C(F)(F)F)n3n2)c1C	2.3%
O=C(CCCn1c(=S)[nH]c2ccccc2c1=O)NC1CCCC1	4.3%
O=C(NNc1c(Cl)cccc1Cl)c1cccs1	1.9%
CCOC(=O)C1CCCN(Cc2cc(=O)oc3cc(C)c(C(C)C)cc23)C1 (stereo not given)	3.4%
Cc1cccc(N2C(=O)C3C(c4ccccc4)OC4(C(=O)c5ccccc5C4=O)C3C2=O)c1 (stereo not given)	0.8%
CC(CC(=O)NCc1cccnc1)c1ccccc1 (stereo not given)	5.9%
CC1CC(C)(C)NC(=S)N1CCC(=O)N1CCc2ccccc2C1 (stereo not given)	-1.3%
CCSc1ncnc2sc3c(c12)CCC3	9.9%
O=C(O)CCn1cc(-c2ccc(F)cc2)nc1-c1ccncc1	-2.8%
Cc1sc2ncn(CC(=O)NCCc3ccccc3)c(=O)c2c1C	?
COC(=O)c1ccc(NC(=O)c2cccc(NC(=O)c3ccccc3)c2)cc1	-10.3%
Cc1nc2ccc(S(=O)(=O)NCC(=O)Nc3cccc(F)c3)cc2s1	-9.1%
O=C(CSc1nc2ccccc2o1)N1CCN(c2ccc(Cl)cc2)CC1	2.4%
COc1ccccc1CNC(=O)c1csc2c1CCCC2	2.5%
O=C(CNC(=O)c1sc2ccccc2c1Cl)NCc1cccnc1	-26.3%
CCCN1CCN(CCCNC(=O)C2CCN(c3nnc(-n4c(C)ccc4C)s3)CC2)CC1	-2.7%

A run of entries from the list above, as a working copy:
SMILES	N370S GC
COc1ccc(C(=O)NCc2nnc(SCC(=O)Nc3nc4ccccc4s3)o2)cc1OC	-2.7%
CCN(c1ccccc1C)S(=O)(=O)c1nnc(NC(=O)c2ccco2)s1	20.8%
CCn1c(SCC(=O)Nc2ccc3c(c2)OCCO3)nc2c(c1=O)SC(C)C2 (stereo not given)	15.1%
Cc1ccc(CNC(=O)CSc2nccn(-c3ccc(C)c(F)c3)c2=O)cc1	4.8%
Cc1ccccc1Cn1nc(C)c(NC(=O)c2cc3nc(-c4ccco4)cc(C(F)(F)F)n3n2)c1C	2.3%

Continuation:
SMILES	N370S GC
CCCN(CC(=O)Nc1ccccc1C)C(=O)C1CC(=O)N(c2cccc(C)c2C)C1 (stereo not given)	-1.4%
Cc1ccc(C2CC(c3ccccc3)n3ncnc3N2)cc1 (stereo not given)	1.8%
Cc1ccccc1CCN(C(=O)c1csnn1)C(C(=O)NC1CCCC1)c1ccncc1 (stereo not given)	-2.5%
COC(=O)c1c(CSc2ccc(Cl)cc2)noc1C(=O)NCc1ccco1	18.7%
O=C(CSc1ncnc2c1oc1ccccc12)Nc1ccccc1C(F)(F)F	4.7%
COc1ccc(CNC(=O)C2CCC(CNc3c(N4CCOCC4)c(=O)c3=O)CC2)cc1 (stereo not given)	4.8%
O=C(CSc1n[nH]c(-c2ccccc2)n1)Nc1ccc(F)cc1F	3.9%
CC(=O)N(Cc1cccnc1)Cc1cc2ccc(C)cc2[nH]c1=O	3.4%[2.35 µM]
Cc1ccc(CSc2nn3c(=O)c(C)nnc3s2)cc1	1.2%
COc1ccc(-n2c(SCC(=O)Nc3cc(C)on3)nc3ccccc3c2=O)cc1Cl	2.6%
COc1ccc(NC(=O)Nc2nnc(N3CCC(C)CC3)s2)cc1OC	-21.8%
CCN(C(=O)c1cc(Cl)ccc1OC)c1ccccc1	1.0%
COc1ccc(C(=O)NC2CCSc3ccccc32)cc1 (stereo not given)	-5.3%
CC(=O)Nc1ccc(S(=O)(=O)N(C)CC(=O)OC(C)C(=O)N(C)C2CCCCC2)cc1 (stereo not given)	-3.1%
CCN(C(=O)Cc1cccs1)c1nnc(-c2cc(OC)c(OC)c(OC)c2)s1	-10.4%
O=C(CSc1nc2ccccc2[nH]1)N1CCCCC1	-4.2%
CC(NC(=S)NNS(=O)(=O)c1ccc(C(C)(C)C)cc1)c1ccccc1 (stereo not given)	0.1%
CCOc1ccc(NC(=O)NCc2ccco2)cc1	-3.0%
NC(=O)CC1SC(N)=NC1=O (stereo not given)	9.9%
CCOC(=O)N1CCN(c2ccc(N3C(=O)CCCC3=O)cc2[N+](=O)[O-])CC1	-4.4%

Three records drawn at random from those above, as already listed:
SMILES	N370S GC
CCOC(=O)N1CCN(c2ccc(N3C(=O)CCCC3=O)cc2[N+](=O)[O-])CC1	-4.4%
O=C(CSc1n[nH]c(-c2ccccc2)n1)Nc1ccc(F)cc1F	3.9%
NC(=O)CC1SC(N)=NC1=O (stereo not given)	9.9%

The results go on.
SMILES	N370S GC
Cc1ccc(S(=O)(=O)N2CCN(c3nccnc3C#N)CC2)cc1	1.3%
CC(=O)C1=C(O)C(=O)N(CCCn2ccnc2)C1c1ccc(Cl)cc1 (stereo not given)	-20.7%
Cc1ccccc1C(=O)NC1CCN(CC(=O)NC2CCCCC2)CC1	-13.8%
CS(=O)(=O)N1CCN=C1SCc1ccccc1	-0.1%
COCCNc1ccc(N2C(=O)C3CCCCC3C2=O)cc1[N+](=O)[O-] (stereo not given)	-2.9%
COc1ccc(OCC(=O)Nc2ccc(C(=O)Nc3ccccc3C(=O)O)cc2)cc1	8.0%
COc1ccc(C2C(C(=O)NCc3ccco3)CCC(=O)N2c2ccc(OC)cc2)cc1 (stereo not given)	10.3%
Cc1nc(C)c(-c2csc(NCc3ccccc3)n2)s1	14.1%
COc1ccc(C(=O)NCCn2ccc3ccccc32)c(OC)c1	7.1%
N/C(=N\OC(=O)COc1ccc([N+](=O)[O-])cc1)c1cccnc1	-5.7%
Cc1cc(OCC(=O)N2CCOCC2)ccc1NC(=O)C1CCCCC1	-12.8%
CCCCC(=O)Nc1ncc(S(=O)(=O)c2ccc([N+](=O)[O-])cc2)s1	-11.2%
COc1cccc(-c2ccc3nnc(SCC(=O)N4CCOCC4)n3n2)c1	0.5%
Nc1nnc(SCC(=O)c2cccc([N+](=O)[O-])c2)s1	7.4%
Cn1cccc1C(=O)NS(=O)(=O)c1ccccc1Cl	10.0%
O=C(C1CCC1)N1CCN(c2ccnc3cc(Cl)ccc23)CC1	-3.3%
Cc1cc(C(=O)N2CCCC(Nc3ccc(F)cc3)C2)c(C)o1 (stereo not given)	0.1%
Cc1cccc(N2CC(C(=O)Nc3nc4ccc(S(C)(=O)=O)cc4s3)CC2=O)c1C (stereo not given)	-12.9%
COc1cc(/C=C/C(=O)O)cc(S(=O)(=O)NC2CCCC2)c1OC	-0.4%
O=C(c1cccc(C(F)(F)F)c1)C1CCCN(C(=O)Cn2cncn2)C1 (stereo not given)	-11.0%
COC(=O)C(C)N(C#N)c1nc(C)nc(C)n1 (stereo not given)	4.7%
Cc1occc1-c1nnc(SC(C)C(=O)Nc2ccccc2F)o1 (stereo not given)	0.3%
Cc1ccc(S(=O)(=O)NCC(=O)NC2CCCC2)cc1	2.0%
COc1cccc(C(=O)N2CCN(Cc3cccc(F)c3)CC2)c1	13.5%
Cc1cc(C)cc(OCC(=O)OCC(=O)Nc2c(C)n(C)n(-c3ccccc3)c2=O)c1	12.1%
CCCCCC(=O)NC(=S)Nc1ccc(Cl)cn1	23.1%
O=C(Nc1ccc(N2CCOCC2)cc1)c1ccc(Cl)nc1	-0.6%
Cn1nc(-c2ccccc2)c(C(=O)NCC(=O)O)c1Cl	7.7%
O=C(NC1CCCCC1)c1ccc(COCC(F)(F)F)o1	7.1%
C/C(CC(=O)Nc1ccc(Cl)c(C(F)(F)F)c1)=N\NC(=O)c1cc2ccccc2cc1O	0.2%
Cc1cc(C)cc(N(C(=O)c2csnn2)C(C(=O)NC(C)(C)C)c2ccncc2)c1 (stereo not given)	4.7%
COc1ccccc1S(=O)(=O)Cc1ccc(C(=O)NCCN2CCCCCC2)o1	-4.1%
Cn1c(=O)c2c(nc(CN3CCN(C(=O)c4ccco4)CC3)n2Cc2cccc(Cl)c2)n(C)c1=O	2.1%
Cc1ccc2[nH]c(=O)c(CN(CCN3CCOCC3)C(=O)Nc3ccccc3F)cc2c1	2.3%
CCOc1cc(CNCc2ccc(C(=O)O)cc2)ccc1OC	5.8%
O=C(Nc1cccn2ncnc12)C(Cl)Cl	2.1%
CN(C)c1ccc(/C=c2\sc3n(c2=O)CCCN=3)cc1	-22.1%
CC1(C)C(=O)OC(c2ccco2)C(C)(C)C1=O (stereo not given)	4.1%
O=C(N/N=C/c1ccccn1)c1cccs1	0.7%
N/C(=N\OC(=O)c1cccc(Br)c1)c1ccc([N+](=O)[O-])cc1	9.3%
Cn1cccc1Cc1nnc(SCC(=O)N2CCOCC2)n1CCc1ccccc1	-1.4%
O=C(CNS(=O)(=O)c1ccc(Br)cc1)NCc1ccncc1	-8.7%
CCOC(=O)c1ccc(-n2ccnc2)c(NC(=O)c2cccc(Br)c2)c1	-4.0%
COC(=O)c1ccc(C(=O)OC)c(NC(=O)COC(=O)C23CC4CC(CC(O)(C4)C2)C3)c1	3.4%
CCN(CC)S(=O)(=O)c1ccc(-c2nnc(SCC(=O)Nc3ccc(OC)c(OC)c3)o2)cc1	-17.4%
CC1(C)N=C(N)N=C(N)N1c1ccc(F)cc1F	9.2%

Bioassay records (PubChem)
